# Calb FLC = affects C. albicans growth with fluconazole. growth inhibition, % (no concentration beside the values). C. albicans CaCi-2 (fluconazole-resistant clinical isolate) + fluconazole, Alamar Blue growth, 48 h. 300,000 compounds, 0.57% hits;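 active means most replicates above 75%; inconclusive means exactly half above 75%; inactive means most below 75%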;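 further: all wells also contain fluconazole at 8 µg/ml as a sub-toxic cotreatment; 0% = median of DMSO wells and 100% = median of geldanamycin control wells; wells of about 8 µL received 7.5 nL stock; the first replicate is given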
# T cruzi inh = T. cruzi replication inhibition; T. cruzi beta-gal in NIH3T3, luminescence, 90 h; inhibition, % (no concentration beside the values); 300,000 compounds, 1.4% hits; AID 1885;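 active means mean inhibition across valid replicates above about 55%, limit read from the data; inconclusive means mean below that limit but half or more replicates reach it; inactive means mean below it, under half of replicates reach it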;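 further: signal also drops with host cell toxicity which is not excluded here; 0% = plate median of DMSO wells and 100% = zero luminescence signal; higher percent means less beta-gal luminescence so fewer parasites; stock transfer was 50 nL into about 50 µL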
# Vif A3G = inhibitors of Vif binding to APOBEC3G peptide, primary screen, biochemical, TR-FRET, GST-Vif 1-94, biotin-A3G peptide, dose response retest (AID 1117319). TR-FRET GST-Vif / biotin-A3G peptide binding; higher % means a stronger effect; test concentration not given here; strong numbers were not always called active. one-dose inhibition, %; IC50 in µM for titrated hits. 260,000 compounds, 0.57% hits;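 active means above the screen mean plus three standard deviations and confirmed in dose response; inconclusive means results disagree or hit not tested in dose response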;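 further: Vif residues 1-94 fused to GST binding biotinylated APOBEC3G peptide 110-148; 0% = full assay without inhibitor and 100% = GST in place of GST-Vif; retest series ran down from 100 µM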
# Ecoli rRNA inh = inhibits bacterial ribosomal RNA function over humanized ribosomes. E. coli WT GFP vs humanized-ribosome RFP mutants, fluorescence, 24 h; hits give low values; DMSO median 0, no signal -100. GFP signal change (wild-type ribosome), % (test concentration not listed). 350,000 compounds, 1.6% hits. AID 720706;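 active means significant combined selectivity score with lowered wild-type GFP, culture density cut under 30%, mutant RFP and density less affected; inactive means any of these conditions unmet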; further: one replicate is shown; some compounds called inactive have numbers as strong as hits
# Beta cell apopt = beta cell apoptosis inhibition | INS-1E cytokine-induced death, ATP luminescence, 48 h; percent of positive-control rescue, neutral wells zero | protection from apoptosis, % (test concentration not listed) | 300,000 compounds, 0.8% hits;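 active means all replicates at 75% or more, or half of them and the mean; inconclusive means half reach 75% but not the mean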;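 further: 0% = cytokine-treated negative control wells and 100% = positive control rescue; higher means more ATP so stronger rescue from cytokine killing; wells of about 40 µL received 100 nL stock; the first replicate is given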
# RanGTP-Imp inh = inhibitors of RanGTP-importin-beta interaction, primary screen, biochemical, FRET, CFP-Ran, YFP-importin-beta, homogeneous. 300,000 compounds, 1.1% hits. AID 2216. inhibition, % (test concentration not listed). cell-free CFP-Ran/YFP-importin-beta FRET ratio;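 active means most replicates above 15%; inconclusive means exactly half above 15%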;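 further: 0% = DMSO wells and 100% = Ran loaded with GDP instead of GTP; wells of about 40 µL received 100 nL stock; the first replicate is given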
# A1 inh = inhibitors of the anti-apoptotic protein A1, read as caspase activation | AID 2462 | 330,000 compounds, 0.066% hits | caspase activation, % (test concentration not listed) | MEF A1-2A-BIM cells, Caspase-Glo 3/7 luminescence, 3 h; percent of clofoctol response, vehicle zero;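 active means over half of replicate activation scores above 10%, or exactly half above 10 with the replicate mean above 10; inconclusive means replicate mean below 10 yet half the replicates above 10; inactive means over half of replicates below 10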;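 further: wells of about 30 µL received 50 nL stock; many hits fall short of the cut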
# MLL AF4-AF9 inh = blocks AF4 peptide binding to human AF9; inhibition, % at 10 µM; AlphaScreen, biotin-AF4 peptide binding to FLAG-AF9; 350,000 compounds, 0.47% hits; AID 651704;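 active means every replicate reaching a set inhibition limit, whatever the replicate mean, cut at about 25% in these data; inconclusive means mean inhibition reaches that limit but some replicates miss it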;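 further: 0% = plate neutral control median and 100% = total signal loss; the record names both 10 and 1 µM as test concentration; the first replicate is given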
# Target sequence (P42568 whole entry, looked up): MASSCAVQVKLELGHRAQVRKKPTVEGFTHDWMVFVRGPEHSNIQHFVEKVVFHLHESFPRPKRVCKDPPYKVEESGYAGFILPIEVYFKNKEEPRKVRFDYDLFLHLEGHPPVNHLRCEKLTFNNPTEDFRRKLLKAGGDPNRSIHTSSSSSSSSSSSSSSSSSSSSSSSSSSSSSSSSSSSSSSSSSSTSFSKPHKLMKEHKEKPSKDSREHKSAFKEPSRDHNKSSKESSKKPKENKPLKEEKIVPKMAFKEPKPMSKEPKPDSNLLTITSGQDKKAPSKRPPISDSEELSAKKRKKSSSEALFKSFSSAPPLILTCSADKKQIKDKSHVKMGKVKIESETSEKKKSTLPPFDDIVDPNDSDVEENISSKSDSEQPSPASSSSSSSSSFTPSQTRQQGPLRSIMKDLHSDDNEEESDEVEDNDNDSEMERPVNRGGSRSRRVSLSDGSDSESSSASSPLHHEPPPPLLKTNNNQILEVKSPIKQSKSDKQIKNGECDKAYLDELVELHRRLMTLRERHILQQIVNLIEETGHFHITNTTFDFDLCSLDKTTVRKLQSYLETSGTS
# Ecoli rRNA inh OD600 = second read-out of Ecoli rRNA inh, no call of its own (marks repeat the call); OD600 change, %; measured here: OD600 growth;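 optical density of the mix in the first replicate; 0 = DMSO median and -100 = no signal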
# Ecoli rRNA inh RFP = second read-out of Ecoli rRNA inh, no call of its own (marks repeat the call); RFP signal change, %; measured here: RFP humanized mutant strains;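 first replicate; 0 = DMSO median and -100 = no signal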
# * marks the source's active call; other numbers are inactive results; ? = inconclusive; . = no result given.
SMILES,Calb FLC,T cruzi inh,Vif A3G,Ecoli rRNA inh,Ecoli rRNA inh OD600,Ecoli rRNA inh RFP,Beta cell apopt,RanGTP-Imp inh,A1 inh,MLL AF4-AF9 inh
CC(C)CNC(=O)CSc1nnc2ccccn12,-5.1,-10.2,-2.0%,.,.,.,-4.9,8.7,0.1,-0.6
O=S(=O)(NC1CC2CCC1C2)c1ccc2c(c1)OCCO2 (stereo unspecified),-4.7,-14.7,17.3%,.,.,.,-3.2,5.8,0.2,.
CS(=O)(=O)N1CCN(C(=O)Cc2ccccc2)CC1,.,-20.4,-3.6%,.,.,.,-9.0,3.4,0.2,.
CCCSc1nnc(Cn2c(=O)sc3ccccc32)n1C,12.2,4.8,15.9%,10.1,7.9,0.1,-4.4,-2.6,0.4,0.9
COc1cccc(CN2CCC(C(=O)Nc3ccc(-c4cccc(C)c4)cc3)CC2)c1O,-1.8,-5.9,.,-9.2,-21.1,3.0,-7.9,2.1,-0.3,12.2
O=C1C2CC=CCC2C(=O)N1n1cnnc1 (stereo unspecified),7.9,-11.7,-3.8%,1.2,-0.6,0.7,0.0,-1.0,0.0,-4.2
CCOC(=O)CC1=NN(c2ccccc2)C(=O)/C1=C\c1ccc(OC)cc1OC,39.4,-13.3,.,10.6,9.1,-2.4,0.5,1.9,0.0,-0.2
O=C(NCc1cccs1)c1cc(-c2ccc(O)cc2)on1,-2.4,-3.0,.,-1.3,-0.6,2.7,9.1,9.4,-1.6,-3.5
COc1ccc(C(=O)NC(C(=O)NCC2(N3CCCCC3)CCCCC2)C(C)C)cc1 (stereo unspecified),.,.,.,18.1,8.0,7.2,-5.3,.,2.0,1.0
O=C(Nc1ccncc1)c1ccc(Br)cc1,92.7*,-4.1,-9.5%,7.9,11.9,-0.3,8.0,-0.2,-1.2,1.2
CCc1nonc1NC(=O)c1oc2ccc(F)cc2c1C,-5.3,-10.8,-2.1%,3.2,5.3,-4.0,.,0.7,.,-2.8
CCc1cc(CN2CCOCC2)c(NC(=O)c2ccccc2)s1,25.9,-4.8,-11.6%,-17.4*,-0.4*,6.3*,2.3,-1.8,0.5,2.0
O=C(NC1CCCCC1)n1c(=O)oc2cc(S(=O)(=O)N3CCCCC3)ccc21,-16.6,-13.8,70.4%,.,.,.,-1.1,1.9,0.6,.
O=C(Nc1nnc(SCc2ccccc2)s1)c1ccco1,1.0,-14.9,3.5%,.,.,.,-0.1,-3.7,-3.1,.
CC(=O)N1CCCN(C(=O)c2ccc3nc(Cc4cccc(Cl)c4)oc3c2)CC1,3.2,4.3,.,3.2,-0.9,0.3,-1.6,4.8,0.2,-6.6
CC1CC(C)(C)CC2(C1)NC(=O)N(CC(=O)N1CCN(S(=O)(=O)c3cccs3)CC1)C2=O (stereo unspecified),.,.,-7.9%,-3.2,-7.2,3.3,-3.2,.,?,0.4
O=C(CC(NS(=O)(=O)c1ccc(Cl)cc1)c1ccco1)NC1CCCC1 (stereo unspecified),0.7,1.0,4.6%,.,.,.,.,4.0,0.4,.
NC(=O)c1ccc(-c2nnn(CC(=O)Nc3cccc(S(=O)(=O)N4CCCC4)c3)n2)cc1,.,.,-1.8%,-1.5,4.8,-1.9,0.7,.,-1.5,2.3
O=C(N/N=C\c1cccc(Br)c1)c1ccccc1-n1cccc1,-1.5,4.8,6.3%,.,.,.,-2.9,-4.2,0.0,.
Cc1nnc(Nc2ccccn2)c2ccccc12,14.2,-27.4,24.1%,.,.,.,-2.6,7.9,-0.4,.
CCc1c(C)sc(NC(=S)N2CCN(CC)CC2)c1C(=O)OC,-16.9,7.0,32.9%,-2.0,-7.8,-5.9,-4.4,-0.7,-0.2,7.0
Cn1c(SCC(=O)Nc2nc(C(C)(C)C)cs2)nnc1C1CC1,-11.5,0.5,-0.2%,3.7,-6.4,3.1,-5.0,-0.1,0.6,-0.8
CC(C)(C)[C@@H]1COC(=O)[C@@H](Cc2ccc(F)cc2)C/C=C\C[C@H](CC(=O)N(CCO)Cc2ccccc2)C(=O)N1,.,.,.,-15.1,-47.1,32.5,-6.9,.,0.7,-3.5
COc1ccccc1CN1CC(C(=O)NCc2nc3ccccc3n2C)CCC1=O (stereo unspecified),-4.3,-0.6,.,11.0,9.2,8.1,-5.3,5.3,0.8,-2.0
COc1cccc(OCCSc2nc(N)cc(N)n2)c1,-3.0,-16.5,-2.9%,.,.,.,22.4,?,-3.5,.
O=C(C1=C[C@H](C2CC2)C[C@H](OCCCCO)O1)N1CCN(Cc2ccccc2)CC1,-1.8,23.8,3.3%,3.7,2.6,-0.9,-5.2,-3.7,-0.5,-1.5
CCNc1c(NCC)c(=O)c1=O,0.4,3.1,-7.7%,24.2,15.3,7.5,-7.4,6.2,0.6,-2.3
O=C1c2ccccc2C(=O)N1CC(=O)N1c2ccccc2Sc2ccccc21,-1.7,7.9,-3.5%,10.1,10.0,-3.0,-0.1,-6.5,-0.9,-1.7
Cc1cc2nc(Cl)c(Cl)nc2cc1C,-4.5,-0.5,-3.0%,-1.3,6.9,-1.0,-8.1,0.7,0.7,-3.3
CC1CC(C)CN(C(=O)c2cc(-c3ccccn3)nc3ccccc23)C1 (stereo unspecified),-0.2,-23.7,0.0%,.,.,.,1.0,-0.5,-0.2,.
CC(C)C[C@H](NC(=O)Nc1ccccc1F)C(=O)O,17.8,-32.2,-3.6%,.,.,.,-1.0,5.7,0.5,.
COc1ccc(N=Nc2ccc(N)nc2N)cc1,-9.0,27.4,27.8%,-11.5,-1.4,7.5,-12.7,2.4,-6.0,13.2
Cc1ccc(-n2c(SCC(=O)NCc3cccs3)nnc2-c2ccoc2C)cc1,1.4,28.8,-0.4%,.,.,.,6.5,-4.0,-0.3,.
CSCCCNC(=S)N1CCN(S(=O)(=O)c2cccc(C(F)(F)F)c2)CC1,-8.9,8.8,24.8%,-5.5,-21.0,-5.4,-5.6,0.8,-0.3,10.8
O=C(Nc1nnc(S(=O)(=O)N2CCOCC2)s1)c1ccc(Cl)cc1,-10.4,12.7,.,-6.8,-11.5,-9.5,16.1,0.8,-0.1,-12.7
COc1ccc(N2CCN(C(=O)COC(=O)CNC(=O)c3ccccc3)CC2)cc1,13.2,-2.7,3.1%,8.0,11.3,4.9,-3.2,-0.3,-0.2,-1.4
Cc1cc(C(=O)COC(=O)c2ccc[nH]c2=O)c(C)n1CCc1ccc(F)cc1,-10.4,-13.1,.,3.7,3.7,5.6,4.2,?,-0.1,1.3
CCn1c(=O)n(CC)c2cc(N3CCCC3)c(NC(=O)c3ccccc3C)cc21,8.5,11.6,.,-13.4,-16.4,2.2,3.5,-0.4,1.2,1.9
COC(=O)Cn1cnc2c(nnn2Cc2ccc(Cl)cc2)c1=O,4.8,-6.3,?,.,.,.,8.2,4.2,0.5,.
Cc1ccc(-c2nc(N)sc2CC(=O)OCC(=O)NCC2CCCO2)cc1 (stereo unspecified),-1.4,0.4,14.0%,11.4,3.3,-0.5,-14.3,-0.2,1.7,-1.2
CC1=C(C(=O)OC(C)C)C(c2cccs2)C(C(=O)OC(C)C)=C(C)N1,13.2,11.6,-3.5%,.,.,.,-6.1,-2.4,0.4,.
CCCCCC1CC(CC/C(C)=N/NC(N)=O)C(=O)O1 (stereo unspecified),-0.3,-10.8,.,25.8,5.8,1.2,-2.5,-2.9,-0.2,-1.2
O=C(CN(Cc1ccco1)S(=O)(=O)c1cccs1)Nc1ccccc1C(F)(F)F,2.3,0.7,7.2%,.,.,.,2.8,1.6,-1.3,.
Cc1ccc(N(CC(O)CN2CCCCC2)S(=O)(=O)c2ccccc2[N+](=O)[O-])cc1 (stereo unspecified),-22.4,-11.0,16.4%,7.4,7.0,-0.9,-5.6,-0.9,0.3,5.7
O=C1C(=O)N(CCS(=O)(=O)c2ccccc2)c2ccc(F)cc21,-21.3,3.4,.,-0.4,-0.6,0.1,-17.8,-1.1,1.3,1.3
O=C1CCCCC(=O)c2ccccc2N1,0.4,-6.9,-0.8%,.,.,.,-13.5,-1.5,0.2,.
CCN1CCN(C(=O)CCCn2c(C)c3cnn(-c4ccccc4)c(=O)c3c2C)CC1,-1.0,-33.2,6.9%,-1.9,0.6,-1.7,-3.9,?,0.0,2.8
Cc1ccccc1C(=O)NC(=S)NCCC1=CCCCC1,-16.3,27.9,?,-34.0,-40.0,-0.6,-1.4,3.2,-0.5,-1.7
Cc1ccc(NC(=O)C(=O)Nc2ccc(C)cn2)nc1,12.5,-25.8,-0.6%,15.8,13.5,1.4,-7.6,-2.1,-0.1,1.5
COCCNC(=O)CN(c1cccc(OC)c1)S(=O)(=O)c1ccc(C)cc1,0.0,6.7,9.7%,.,.,.,.,1.4,-0.3,.
O=c1[nH]nc(SCc2nnc(-c3ccc([N+](=O)[O-])cc3)o2)n1C1CCCCC1,21.3,34.0,7.8%,-4.4,7.4,-1.4,2.5,1.1,1.2,2.4
Cc1ccc(N2C(=O)C(CN3CCOCC3)C2c2ccccc2)cc1 (stereo unspecified),44.8,25.3,-6.2%,-4.2,-6.4,-2.7,-7.4,2.9,0.1,-1.3
Cc1oc(-c2ccccc2Cl)nc1CSc1nc2c(c(=O)[nH]1)CCC2,-7.4,-6.4,-2.4%,4.4,7.5,0.9,2.9,5.4,-0.3,-0.3
COc1ccc(NC(=O)C2CCCN(S(=O)(=O)c3cccs3)C2)cc1OC (stereo unspecified),0.7,-5.4,3.6%,.,.,.,2.8,1.0,-0.3,.
O=C(CC(NC(=O)c1ccccc1)c1ccccc1)NCc1ccccc1 (stereo unspecified),.,.,-6.6%,4.4,16.2,-2.3,-2.4,.,-0.5,-2.6
O=C(Nc1ccc(F)cc1F)c1ccc(-n2cncn2)nc1,14.3,-6.7,-1.8%,.,.,.,0.8,4.8,?,.
CCn1c(=O)cc(C(F)(F)F)[nH]c1=S,-11.3,-7.5,-8.0%,0.4,3.3,-6.3,-3.0,4.3,0.1,-3.2
O=C(N/N=C/c1ccc(OC(F)F)cc1)c1cccc(S(=O)(=O)N2CCOCC2)c1,4.0,-14.0,?,15.9,9.3,-3.1,-1.7,-0.1,1.7,0.8
COc1ccccc1CN1CC(C(=O)NCCc2ccccc2Cl)CCC1=O (stereo unspecified),12.6,6.8,.,6.3,0.4,1.9,-4.3,-2.5,-0.3,-0.9

# The list is partial. The share of hits here may be higher or lower than overall.
